Screening data deposited in PubChem by several laboratories.
Bead autofluor – counter-screen for toxin protease inhibitors: compound fluorescence; AID 624483; 3.1% of 360,000 active; fluorescence intensity (test concentration not listed); compound autofluorescence counterscreen, microsphere flow cytometry; stronger effect = higher value;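 active means at least 3 SD above the mean of all compounds, about 16000 in these data; inconclusive means too few beads counted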;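 further: 100 nL of 1 mM stock went into each well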
Sa ugtP lethal – growth inhibition of S. aureus ugtP deletion strain. S. aureus RN4220 ugtP deletion, OD600 growth, 16 h; some inactives read as strong as hits. growth inhibition, % (no concentration beside the values). 0.54% of 330,000 active;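 active means z-score under -3 and OD600 up to 0.15 on both plates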;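 further: plate controls were untreated wells for no effect and antibiotic for full effect; wells of about 80 µL received 100 nL stock; the first replicate is given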
Mtb hypoxia rep – inhibitors of hypoxia-regulated fluorescent reporter in Mycobacterium tuberculosis; M. tuberculosis hypoxia-regulated fluorescent reporter, fluorescence; fluorescence inhibition, % (concentration not given with the values); 0.1% of 300,000 active;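 active means 35 to 45% if threefold the growth effect, above 45% if 1.5-fold the growth effect; inactive means the rest, general growth blockers included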;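 further: wells of about 50 µL received 100 nL stock; 0% = vehicle wells and 100% = reference inhibitor wells; whole bacteria with a GFP reporter of the hypoxia response; strong numbers were not always called active; many hits fall short of the cut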
PrP UTR inh – inhibition of PrP 5' UTR reporter expression | 0.35% of 340,000 active | AID 488862 | inhibition, % (no concentration beside the values) | cell-based PrP 5' UTR mRNA reporter, plate reader;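 active means every replicate at 50% or more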;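 further: 0 = median of the neutral control wells; tested in H4 reporter cells; numbers are from one replicate; inactives centre near -14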
BJeLR viability – BJeLR cell viability loss; 0.17% of 300,000 active; inhibition, % (concentration not given with the values); BJeLR (HRASV12) viability, CellTiter-Glo ATP luminescence, 48 h; reference of the scale not given here;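 active means replicate mean above 50%; inconclusive means above 50% but judged a plate artefact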;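 further: 50 nL library stock added to about 25 µL; numbers are from one replicate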
Sa RN4220 lethal – S. aureus RN4220 growth inhibition | OD600, 16 h | inhibition, % (concentration not given with the values) | 0.33% of 330,000 active | AID 1259311;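 active means z-score of -3 or lower and OD600 up to 0.18 on both plates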;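 further: plate controls were untreated cells for no effect and reference antibiotic for full effect; stock transfer was 100 nL into about 80 µL; one replicate is shown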
Mtb hypoxia rep growth – further read-out of Mtb hypoxia rep, marked with its call; growth inhibition, %; measured here: M. tuberculosis growth (absorbance);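 0% = vehicle and 100% = reference antibiotic; read after six days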
An asterisk follows results filed as active; ? = inconclusive; · = not tested or not shown; & = joins results of further samples.

SMILES | Bead autofluor | Sa ugtP lethal | Mtb hypoxia rep | Mtb hypoxia rep growth | PrP UTR inh | BJeLR viability | Sa RN4220 lethal
Cc1nn(-c2nnc(NCc3ccccc3)nn2)c(C)c1Br | 2310 | -2 | 17 | 18 | -45 | -7 | 5.5
O=C(N/N=C\c1cccnc1)c1cc(-c2ccccc2)nc2c(Cl)cccc12 | 5675 | · | · | · | -12 | -2 | ·
CCOC(=O)OCC(=O)C1(O)CCC2C3CCC4=CC(=O)CCC4(C)C3C(O)CC21C (centres undefined) | 3734 | 1 | 8 | -3 | -6 | · | 3.3
O=C(O)c1ccc(NC(=O)c2ccc(COc3ccccc3)o2)cc1 | 3637 | 2 | 3 | 10 | -18 | -1 | 5.1
COn1c(-c2ccc(Cl)cc2Cl)nc2ncccc21 | 5096 | 0 | 7 | 8 | -12 | 6 | -0.6
O=C(OCc1ccc(O)cc1)c1c(-c2ccsc2)oc2ccc(N3CCOCC3)cc12 | 3546 | 9 | 4 | 3 | -12 | -9 | -4.9
N=c1c2c3c(sc2nc2n1CCCCC2)CCCCC3 | 2790 | 9 | · | · | -62 | · | 1.0
c1ccc(CC2CCN(Cc3ccccn3)CC2)cc1 | 4179 | 2 | 17 | 8 | -15 | 19 | 0.3
O=C(NC1CCCC1)c1ccc(Br)o1 | 4631 | 2 | · | · | 1 | 1 | 3.0
Cc1ccc2nc(N3CCN(c4ccccc4)CC3)c(C=O)c(=O)n2c1 | 2502 | 9 | -4 | -4 | -22 | -7 | 8.0
Cc1cc(S(=O)(=O)Nc2c(C)nn(C)c2C)c(Cl)cc1Cl | 4234 | 4 | -9 | -14 | -14 | -10 | 6.2
C[C@H](NC(=O)c1ccco1)C(=O)Nc1nnc(SCc2ccccc2)s1 | 3569 | 0 | 7 | -2 | -30 | · | 2.7
CC(=NNC(=O)CCc1ccc(S(=O)(=O)N2CCOCC2)cc1)c1ccc(Br)cc1 | · | 5 | 10 | 3 | · | · | -0.5
COc1ccc(S(=O)(=O)n2nc(OC(C)=O)cc2N(C(C)=O)C(C)=O)cc1 | 3783 | -3 | 11 | 8 | -28 | 1 | -11
CC(Cc1ccccc1)NC(=O)C1CCCNC1=O (centres undefined) | 9158 | 16 | -2 | 1 | -24 | -4 | 7.4
COC(=O)c1ccc(CN2C(=O)NC3(CCCc4ccccc43)C2=O)o1 (centres undefined) | 5307 | -5 | · | · | -19 | 0 | 1.1
C=C(C)c1cc2c(ccc3ccc(=O)oc32)o1 | 6455 | 4 | · | · | -25 | · | 3.5
COc1ccc(NC(=O)c2ccc(NC(=O)c3cccs3)cc2)cc1 | 4427 | -1 | -2 | 1 | 7 | 1 | 2.6
CCn1c(CNC(=O)c2ccco2)nnc1SCC(=O)Nc1cccc(F)c1 | 2540 | 7 | 3 | 3 | -5 | -4 | -0.9
Cc1ccc(-n2c(=O)cc(N3CCN(C(=O)c4ccco4)CC3)[nH]c2=O)cc1 | 5903 | 4 | 1 | 7 | -12 | 3 | 0.1
CC1CCCCN1C(=O)COC(=O)c1cc(Cl)c2c(c1)OCO2 (centres undefined) | ? | -4 | 7 | -7 | -60 | · | 3.2
CCN(CC)S(=O)(=O)c1ccc(Cl)c(C(=O)NC2CCN(Cc3ccccc3)CC2)c1 | 4844 | 4 | 0 | 5 | -21 | 5 | -0.3
COc1ccc(S(=O)(=O)Nc2cc(C)cc(C)n2)c2ccccc12 | 4343 | 7 | 5 | -2 | -15 | -4 | 2.8
CC(=O)Nc1cccc(NC(=O)c2cccc(-c3ccc(O)cc3)c2)c1 | 6297 | 1 | -4 | -15 | -65 | -6 | 0.5
Nc1ncnc2c1ncn2C1OC(CO)C(O)C1O (centres undefined) | 3466 | -5&7&-1&11 | -10&7&-13&8 | -2&9&-2&1 | -8 | 2 | 6.8&4.4&6.5&5.1

The list continues:
SMILES | Bead autofluor | Sa ugtP lethal | Mtb hypoxia rep | Mtb hypoxia rep growth | PrP UTR inh | BJeLR viability | Sa RN4220 lethal
O=S(=O)(c1cccc(Br)c1)N1CCN(CCc2ccccc2)CC1 | 5301 | 5 | -2 | 0 | -24 | 1 | 6.6
O=C(Nc1cc2c(cc1Br)OCCO2)c1cccs1 | 2997 | 3 | 7 | 5 | -58 | -1 | 3.7
N#C/C(C(=O)NCc1ccco1)=C1/SC=C(c2ccccc2)N1c1ccccc1 | 2152 | 3 | 13 | 8 | -10 | 11 | 5.9
Cc1ccc(C(=O)NNC(=O)Cn2ccc(C(F)(F)F)n2)o1 | 3477 | -7 | 1 | 5 | -14 | -1 | 1.2
CCCCc1c(O)nc(SCC(=O)N2CCCCCC2)[nH]c1=O | 5138 | 2 | -8 | 3 | -11 | -8 | -1.6
CN(c1ncnc(N)c1[N+](=O)[O-])C1CCS(=O)(=O)C1 (centres undefined) | 4914 | 10 | 11 | 5 | 2 | 4 | 3.4
CCCn1nnc(NC(=O)COc2ccc(C3CCCCC3)cc2)n1 | 7844 | 3 | 9 | -2 | 2 | -10 | 5.6
N#CC1=C(N)OC2=C(C(=O)CCC2)C1C1CC=CCC1 (centres undefined) | 6118 | 6 | 5 | 14 | 3 | -3 | 3.7
Cc1c(NC(=O)C(C)OC(=O)CC2CC3CCC2C3)c(=O)n(-c2ccccc2)n1C (centres undefined) | 4065 | -65 | 15 | 3 | -29 | 0 | 7.0
O=C(NCC1CCCO1)c1cc(-c2ccncc2)nc2ccccc12 (centres undefined) | 5459 | 6 | -4 | 1 | -16 | · | 0.6
COc1ccccc1CNC(=O)COc1ccccc1C | 3970 | 14 | 7 | -4 | -21 | 2 | 6.2
O=C(O)COCC(=O)Nc1ccccc1-c1ccccc1 | 4416 | -3 | -1 | -9 | -15 | 1 | 5.1
CC(OC(=O)CCC(=O)c1ccc(Cl)s1)C(=O)NC1(C#N)CCCCC1 (centres undefined) | 3025 | 3 | 3 | 1 | -5 | · | 5.7
Oc1ccc2ccccc2c1C=NCc1ccccc1 | · | 7 | -1 | 5 | -23 | -3 | 5.2
Cc1ccccc1NC(=O)C1C2CCC(O2)C1C(=O)O (centres undefined) | 4708 | 0 | · | · | -11 | 0 | 1.0
CSc1nnc(C(C)(C)C)c(=O)n1/N=C/c1ccc(Cl)cc1 | 3189 | · | · | · | -22 | 3 | ·
CNC(=O)CCCCCNS(=O)(=O)c1ccc(C)cc1 | 4915 | 1 | 9 | 11 | -2 | -3 | -3.9
CCc1cc(C(=O)N(CC(C)C)c2c(N)n(Cc3ccccc3)c(=O)[nH]c2=O)sc1C | 6496 | -3 | 1 | 3 | -20 | 2 | 0.8
CCOc1ccc2ccccc2c1C=NNC(=O)c1c(C)cc(C)[nH]c1=O | · | 4 | 10 | -5 | · | · | 1.2
O=C(O)CN=C1CC(c2ccccc2)CC(=O)/C1=C(\O)CCCN1C(=O)c2ccccc2C1=O (centres undefined) | · | 3 | 6 | 8 | · | · | 2.5
Cc1cccc(C)c1N(CC(=O)N/N=C/c1cc(Br)c(C)o1)S(C)(=O)=O | 2081 | · | · | · | -11 | 10 | ·
Cc1ccc2nc(-c3cc(N)cc(N)c3)oc2c1 | 3802 | -9 | 15 | 13 | 52 | 16 | 1.5
O=C(Nc1cc(C(F)(F)F)ccc1N1CCOCC1)c1ccccc1F | 3291 | -3 | -3 | 8 | -3 | 3 | -11
COc1ccc(CCNC(=O)COC(=O)Cc2ccc(OC)cc2)cc1 | 2598 | 2 | 0 | -15 | -24 | 12 | -5.5
O=C(Cn1cc(C(F)(F)F)ccc1=O)NN=Cc1ccc(F)cc1 | · | 5 | -8 | -4 | · | · | 3.3

Exported tab-delimited: 4 of the compounds above.
SMILES	Bead autofluor	Sa ugtP lethal	Mtb hypoxia rep	Mtb hypoxia rep growth	PrP UTR inh	BJeLR viability	Sa RN4220 lethal
N#CC1=C(N)OC2=C(C(=O)CCC2)C1C1CC=CCC1 (centres undefined)	6118	6	5	14	3	-3	3.7
CCCn1nnc(NC(=O)COc2ccc(C3CCCCC3)cc2)n1	7844	3	9	-2	2	-10	5.6
Cc1c(NC(=O)C(C)OC(=O)CC2CC3CCC2C3)c(=O)n(-c2ccccc2)n1C (centres undefined)	4065	-65	15	3	-29	0	7.0
O=S(=O)(c1cccc(Br)c1)N1CCN(CCc2ccccc2)CC1	5301	5	-2	0	-24	1	6.6

Back to the main list, repeating the two entries before the break.
SMILES | Bead autofluor | Sa ugtP lethal | Mtb hypoxia rep | Mtb hypoxia rep growth | PrP UTR inh | BJeLR viability | Sa RN4220 lethal
COc1ccc(CCNC(=O)COC(=O)Cc2ccc(OC)cc2)cc1 | 2598 | 2 | 0 | -15 | -24 | 12 | -5.5
O=C(Cn1cc(C(F)(F)F)ccc1=O)NN=Cc1ccc(F)cc1 | · | 5 | -8 | -4 | · | · | 3.3
CC(CNC(=O)c1ccc(-c2ccccc2)cc1)CN(C)C (centres undefined) | 2978 | 3 | · | · | -16 | 2 | -0.8
O=C(Nc1ccc2ccccc2c1)/C(=C\c1ccc2c(c1)OCO2)NC(=O)c1ccco1 | 2598 | 7 | 8 | 2 | 5 | -10 | 2.6
Cc1ccc(CN2CCN(Cc3ccc(Oc4ncccn4)cc3)CC2CCO)cc1 (centres undefined) | 3455 | 14 | 4 | 4 | -12 | 7 | 5.0
FC(F)(F)c1ccc(Oc2ccccc2Cl)nc1 | 2056 | 0 | -11 | 0 | 5 | 6 | 0.8
CNC(=O)c1ccc(-c2cc(C(F)(F)F)nn2C)s1 | 3515 | 5 | 7 | 12 | · | -1 | 3.2
O=C(CN1C(=O)c2ccccc2S1(=O)=O)NCc1ccccc1 | 3583 | 5 | 9 | -2 | -2 | 13 | 0.0
COC(=O)c1cn(NC(=O)/C=C/c2cccc(OC)c2OC)c(=O)c2ccccc12 | · | 5 | 5 | 4 | · | 0 | 2.0
CC(C)Nc1ccc(Nc2ccnc3cc4ccccc4cc23)cc1 | · | 2 | · | · | -22 | 44 | 11
O=C(NCC[C@@H]1C[C@@H]2C=C[C@H]1C2)c1cc(COc2ccc(F)cc2F)on1 | 6162 | 11 | 3 | 3 | -5 | -3 | -3.6
Cc1ccc(S(=O)(=O)CCN2CCN(c3ccccn3)CC2)cc1 | · | 0 | 12 | 3 | -20 | 1 | 2.3
Cc1ccc(Nc2nc(-c3ccc(O)c(O)c3)cs2)nc1 | · | -17 | -7 | -5 | · | 7 | 7.6
COc1ccc(CCNC(=O)CCC(=O)N2CCN(S(=O)(=O)c3ccccc3)CC2)cc1OC | 8876 | 0 | 2 | 4 | -16 | -1 | 0.7
CCC(=O)Nc1cc(C)c(NC(=O)c2ccco2)cn1 | 3449 | 6 | 10 | 8 | -13 | -5 | 5.5
Cc1c(C)c2ccc(OS(C)(=O)=O)c(C)c2oc1=O | 2552 | 7 | 5 | 2 | -27 | -4 | 6.2
O=c1[nH]cnc2c1ncn2[C@@H]1C[C@@H](O)[C@H](CO)O1 | 3242 | 2 | -1 | -8 | -16 | 11 | -0.4
Cc1cc(C)n(S(=O)(=O)c2cccc([N+](=O)[O-])c2)n1 | 3264 | 6 | 11 | 9 | -26 | 1 | -4.5
COc1cccc(CNC(=O)Cn2ccc3cc(S(=O)(=O)N4CCC(C)CC4)ccc32)c1 | 6190 | 7 | 9 | 3 | -25 | -6 | 1.1
COC(=O)Cc1c(C)c2ccc(OCc3nn[nH]n3)cc2oc1=O | 9452 | 2 | 5 | 6 | · | 11 | 0.4
O=[N+]([O-])c1cc(C2Nc3cccc4cccc(c34)N2)ccc1Cl | 2039 | -20 | -10 | -16 | -16 | -6 | 2.3
CCN1CCN(c2cc(C(C)(C)C)nc3c(-c4ccccc4)c(C)nn23)CC1 | 10843 | -24 | 10 | 20 | · | -2 | -10
CCc1ncc(CN2CCCC(C(=O)Nc3cccc(-c4ccc(F)cc4)c3)C2)cn1 (centres undefined) | 4818 | -5 | 0 | 14 | -5 | -6 | -4.7
CC(=O)c1cnc2nc(SCc3ccc(Cl)cc3)nn2c1C | 3894 | 17 | 4 | 6 | -9 | 1 | -3.7
NS(=O)(=O)c1ccc2nc(NC(=O)c3ccncc3)sc2c1 | 2667 | 9 | 7 | 11 | -13 | -4 | 3.7
O=C(Cc1ccccc1)NCCc1cn2ccsc2n1 | 5553 | 18 | -3 | -6 | -14 | -9 | 11
Cc1cc(-c2ccc(C(C)C)c(S(=O)(=O)Nc3cc(C)on3)c2)on1 | 4188 | 15 | 6 | 0 | -13 | -3 | 10
CCOC(=O)C1=C(C)NC(C)=C(C(=O)OCC)C1c1ccco1 | 4324 | 13 | 1 | -2 | -2 | 1 | 2.8
Cc1ccc2nc(N3CCN(C=O)CC3)nc(-c3ccccc3)c2c1 | 10613 | 5 | 12 | 5 | -25 | 5 | 5.5
